# Screens: PubChem BioAssay, several laboratories
# CSC inhib: cancer stem cell viability inhibitors, primary screen, luminescence; AID 2717, 2010; actives 1.1% (n = 300,000); cancer stem cell-like cells viability; inhibition, % at 7.5 µM;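 active = mean at 75% or more and at least half the replicates too; inconclusive = mean and replicates disagree; tested in HMLE shEcad cells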;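 also: 0% = median of negative and 100% = median of positive control wells; the first replicate is given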
# Env fusion inh: inhibitors of HIV-1 Env-driven cell-cell fusion, primary screen, HeLa-JRFL effector, CEM21 target cells, luciferase; inhibition, % at 12.3 µM; actives 1.1% (n = 360,000); AID 651610, 2012;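 active = mean replicate inhibition score of at least 50 and every replicate individually at or above 50; inconclusive = only one of the two criteria met; inactive = mean below 50 and not all replicates reaching 50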;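 also: 0% = plate neutral controls and 100% = maraviroc near 300 nM; one replicate is shown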
# PABP FP inh: PABP poly(A) RNA binding inhibitors, primary screen, biochemical, fluorescence polarization, uHTS; actives 1% (n = 290,000); Polyadenylate-binding protein 1 (Homo sapiens), P11940; inhibition, % at 35 µM;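 active = 50% or more with normal probe brightness, or confirmed in later tests; inconclusive = above 50% with abnormal brightness, or retests that disagree; inactive = below 50% or failed in later tests; about a fifth of its hits are not listed in these tables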;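 also: calls also rest on retests at 20 µM and on dose response follow-up; controls were probe without protein and protein plus probe with vehicle; some compounds called inactive have numbers as strong as hits; many hits fall short of the cut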
# Target sequence (P11940 whole entry, looked up): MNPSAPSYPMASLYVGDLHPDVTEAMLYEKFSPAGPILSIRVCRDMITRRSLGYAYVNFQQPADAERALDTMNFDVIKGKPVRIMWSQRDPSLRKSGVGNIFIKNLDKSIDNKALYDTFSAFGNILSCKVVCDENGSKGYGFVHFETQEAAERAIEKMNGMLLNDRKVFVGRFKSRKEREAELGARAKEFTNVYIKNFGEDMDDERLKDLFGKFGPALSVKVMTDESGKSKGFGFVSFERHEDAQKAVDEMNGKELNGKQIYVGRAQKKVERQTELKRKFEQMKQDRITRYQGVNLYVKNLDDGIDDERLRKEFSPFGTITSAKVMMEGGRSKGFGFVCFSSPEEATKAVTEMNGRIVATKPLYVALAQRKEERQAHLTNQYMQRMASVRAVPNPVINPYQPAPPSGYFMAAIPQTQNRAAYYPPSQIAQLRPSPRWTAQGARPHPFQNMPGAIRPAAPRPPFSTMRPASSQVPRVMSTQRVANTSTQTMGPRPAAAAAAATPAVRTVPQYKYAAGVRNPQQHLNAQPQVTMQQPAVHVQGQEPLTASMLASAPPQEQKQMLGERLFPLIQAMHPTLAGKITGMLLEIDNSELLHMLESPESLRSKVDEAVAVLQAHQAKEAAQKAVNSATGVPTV
# Rce1 inhib: yeast Rce1p protease inhibitors, primary screen, biochemical, fluorescence, cell-free homogeneous; AID 2563, 2010; yeast membranes, quenched prenylated peptide cleavage fluorescence; calls only; actives 0.27% (n = 290,000);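 active = fall in fluorescence gain of 50% or more versus controls, with final raw signal at or below 3038400; inconclusive = same 50% fall but final raw signal above 3038400; inactive = fall in fluorescence gain under 50%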;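 also: plate controls were neutral control wells for no effect and wells lacking membranes for full effect; tested at 10 µM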
# Target sequence (Q03530 whole entry, looked up): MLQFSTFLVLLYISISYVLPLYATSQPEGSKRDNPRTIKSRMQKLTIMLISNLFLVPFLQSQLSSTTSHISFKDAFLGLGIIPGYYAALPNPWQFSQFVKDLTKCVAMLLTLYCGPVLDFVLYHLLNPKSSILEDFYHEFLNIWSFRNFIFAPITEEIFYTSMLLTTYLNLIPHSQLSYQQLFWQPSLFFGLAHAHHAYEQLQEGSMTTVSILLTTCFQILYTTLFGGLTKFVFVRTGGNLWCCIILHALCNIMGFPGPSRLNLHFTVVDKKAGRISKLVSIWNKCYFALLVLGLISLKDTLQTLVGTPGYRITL
# eIF4H FP inh: human eIF4H binding inhibitors, primary screen, translation initiation inhibitor project, biochemical, uHTS, fluorescence polarization; actives 0.94% (n = 290,000); inhibition, % at 35 µM; eIF4H fluorescence polarization binding assay; AID 2012, 2009; Eukaryotic translation initiation factor 4H (Homo sapiens), Q15056;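 active = 50% or more with normal probe brightness, or confirmed in later tests; inconclusive = above 50% with abnormal brightness, or retests that disagree; inactive = below 50% or failed in later tests; about a fifth of its hits are not listed in these tables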;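 also: calls also rest on retests at 20 µM and on dose response follow-up; 0% = protein and probe with vehicle and 100% = probe without protein; strong numbers were not always called active; many hits fall short of the cut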
# MT1-MMP act inh: blockers of MT1-MMP proenzyme processing, primary screen, HT1080 RFP-PRO-GFP cells, GFP/RFP fluorescence | Matrix metalloproteinase-14 (Homo sapiens), P50281 | GFP/RFP ratio fluorescence, overnight; percent of plate control window, DMSO zero | GFP/RFP ratio change, % at 20 µM | actives 0.061% (n = 360,000) | AID 651647, 2012;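 active = GFP/RFP ratio change of at least 30% with cell ATP level not reduced by more than half and red fluorescence within 50% of control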; also: strong numbers were not always called active
#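 Material – HT1080 RFP-PRO-GFP cells · Control set – DMSO wells and RFP-L50D-GFP cells · Incubation – overnight cell settling, then overnight compound exposure, 37 °C, 5% CO2 · Compound dosing – single-point 20 µM compound, 1% DMSO · Read-out – GFP/RFP fluorescence ratio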
# UUG fidelity: modulators of yeast start codon fidelity, primary screen, whole organism, S. cerevisiae, single point, plate reader; actives 0.13% (n = 350,000); AID 602363, 2012; activity score, % at 18.7 µM; S. cerevisiae UUG-firefly luciferase reporter, luminescence/redox ratio;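 active = replicate mean at a twofold rise or more, about +100% in these data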;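 also: firefly luciferase made from a UUG start codon reports start codon fidelity; reporter light over untreated wells divided by growth signal over untreated wells; some hits fall short of that in this replicate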
# MT1-MMP act inh RFP: also measured in MT1-MMP act inh; calls as there; RFP signal change, %; measured here: RFP expression control read;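 0 = vehicle wells; hits needed this value within 50% of zero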
# An asterisk follows results filed as active; i = inactive; ? = inconclusive; . = not tested or not shown.
SMILES,CSC inhib,Env fusion inh,PABP FP inh,Rce1 inhib,eIF4H FP inh,MT1-MMP act inh,MT1-MMP act inh RFP,UUG fidelity
CC(=O)N1CCN(Cc2nc3cc(NC(=O)C4CCCCC4)ccc3n2C)CC1,21,-365,-13,i,-10,0,6,-10
CCN(CC)CCN(C)C(=O)c1[nH]c(C(F)(F)F)nc1-c1ccccc1,.,-23,.,.,.,4,2,-8
CCOc1ccc(-n2c(N)c(C(=O)N3CCN(C)CC3)sc2=S)cc1,-9,-1,-4,i,1,0,3,.
Cn1c(=O)c2c(ncn2CC(=O)OCC(=O)NCc2ccc(Cl)cc2)n(C)c1=O,-6,-18,-7,i,-16,-2,4,.
CCCS(=O)(=O)c1snnc1C,-5,.,1,.,0,7,3,10
CC(=O)Nc1ccc(NC(=O)CCc2c(C)noc2C)cc1,.,-3,.,.,.,1,0,-10
C=CCC(C)(NCc1ccccc1)c1ccccc1 (centres undefined),-8,-40,1,i,3,3,6,-15
CCOC(=O)c1[nH]ncc1CN1CCN(Cc2ccccc2)C(CCO)C1 (centres undefined),-2,-9,-9,i,36,1,0,.
O=C1C=C(c2cccc3c2sc2ccccc23)C[C@@H](c2ccc(F)cc2)C1,-2,21,.,.,.,-2,-7,-16
Nc1nc(NCc2c(F)cccc2Cl)nn1-c1ccccc1,14,-38,16,i,-2,1,-1,-27
O=C(C1CCN(Cc2cn[nH]c2-c2ccc(F)cc2F)CC1)N1CCOCC1,-3,11,-2,i,-3,3,0,.
COc1cc(-c2noc(C)n2)cc(OC)c1OC,-5,-2,-11,i,10,3,1,-7
CCCCN(C(=O)c1cccc(S(=O)(=O)N2CCCC2)c1)c1c(N)n(CCC)c(=O)[nH]c1=O,-15,11,.,.,.,1,2,-8
CCC(C)(C(=O)NC1CCCCC1)N(CC1CCCO1)C(=O)Cc1cccs1 (centres undefined),14,-2,-8,i,-2,3,-1,-12
NNC(=O)CSc1c(-c2cccs2)[nH]c2ccccc12,14,.,-3,i,-15,4,5,.
CC(C)(C)NC(=O)C1CCN(S(=O)(=O)c2ccc(Br)cc2)CC1,-2,5,2,i,5,4,6,-11
Cc1c(-c2nc(N)nc(Nc3ccccc3)n2)oc2ccccc12,33,.,-2,i,-2,-1,-10,.
Cn1c(N/N=C/c2cc3ccccc3nc2Cl)nc2ccccc21,28,i,-10,i,-7,-24,-1,.
Cc1ccc(Cl)c(NC(=O)CSc2cccc[n+]2[O-])c1Cl,-13,-6,.,.,.,4,4,-10
CCOC(=O)CON1C(=O)C(C)(C)N(OCC(=O)OCC)C(=O)C1(C)C,-5,.,4,i,3,2,-1,-4

# Molecules from the list above that have a Cl atom:
SMILES,CSC inhib,Env fusion inh,PABP FP inh,Rce1 inhib,eIF4H FP inh,MT1-MMP act inh,MT1-MMP act inh RFP,UUG fidelity
Cn1c(=O)c2c(ncn2CC(=O)OCC(=O)NCc2ccc(Cl)cc2)n(C)c1=O,-6,-18,-7,i,-16,-2,4,.
Nc1nc(NCc2c(F)cccc2Cl)nn1-c1ccccc1,14,-38,16,i,-2,1,-1,-27
Cn1c(N/N=C/c2cc3ccccc3nc2Cl)nc2ccccc21,28,i,-10,i,-7,-24,-1,.
Cc1ccc(Cl)c(NC(=O)CSc2cccc[n+]2[O-])c1Cl,-13,-6,.,.,.,4,4,-10

# More entries.
SMILES,CSC inhib,Env fusion inh,PABP FP inh,Rce1 inhib,eIF4H FP inh,MT1-MMP act inh,MT1-MMP act inh RFP,UUG fidelity
CN(C)S(=O)(=O)c1ccc(C(=O)OCC2CCCO2)cc1 (centres undefined),-6,-24,4,i,-12,1,4,-15
CN(C)S(=O)(=O)c1ccc(C(=O)OCC(=O)NC(=O)NC2CCCC2)cc1,21,.,.,.,.,2,7,-2
O=c1oc2cc(Br)ccc2n1CSC1=NCCS1,18,.,-6,.,-4,0,-7,-11
COc1cccc(-n2c(SCC(=O)NC3CCCC3)nnc2-c2ccco2)c1,-1,-104,-9,i,5,-3,-3,-6
C=CCNc1nc2c(c(=O)n(C)c(=O)n2C)n1CCCCCC,-8,92*,8,i,1,1,-19,-15
O=C(COc1coc(CN2CCc3ccccc3C2)cc1=O)Nc1cccc([N+](=O)[O-])c1,1,0,.,i,.,-4,-10,-3
COC(=O)c1cn(C(=O)c2ccco2)c2ccccc12,-4,.,-3,i,8,3,1,-12
CCC(C)(C#CCN1CCCCC1)OCCC#N (centres undefined),-12,7,13,i,9,-3,-1,5
Cc1ccc(N2C(=O)CCSC23C(=O)Nc2ccccc23)cc1 (centres undefined),-13,1,10,i,-2,-4,5,-16
CCOc1ccc(NC(=O)CC2C(=O)N(c3ccc(OC)cc3)C(=O)N2Cc2ccc(OC)cc2)cc1 (centres undefined),0,-89,9,i,-6,5,2,-13
COc1ccc(O)c(/C=N/NC(=O)c2ccc(CSc3nc(C)cc(C)n3)cc2)c1,110*,19,-3,i,11,-8,-20,.
CCn1cc(C(=O)NCC2CCCO2)c(=O)c2cc(S(=O)(=O)N3CCC(C)CC3)ccc21 (centres undefined),-3,-35,1,i,1,-2,1,.
Cn1cc(C(=O)Nc2cccc(F)c2)cn1,-1,.,8,i,8,7,7,-25
COc1ccc(NC(=O)C2CCCNC2=O)cc1 (centres undefined),0,2,-5,i,-11,2,2,-6
Cc1cccc(C)c1NC(=O)c1ccccc1C(=O)O,-9,-2,0,i,7,-3,3,-4
N=c1c(C(=O)NCc2ccc3c(c2)OCO3)cc2c(=O)n3ccccc3nc2n1CC1CCCO1 (centres undefined),-14,-14,-5,i,10,1,2,-5
CCc1cc(C(N)=O)c(NC(=O)c2ccc(OC)cc2)s1,-2,-8,6,i,-13,6,-1,.
O=c1cc(N2CCCC2)c2ccccc2o1,-1,-6,-1,i,-4,1,3,.
O=C(O)c1ccc[n+](Cc2ccc([N+](=O)[O-])cc2)c1,3,-1,.,i,.,2,5,-6
CC(C)n1c(SCC(=O)Nc2ccccc2)nc2c1c(=O)n(C)c(=O)n2C,-15,.,-4,i,4,3,-4,4
O=C(Nc1cccc([N+](=O)[O-])c1)c1cnccn1,-9,2,-5,i,17,5,5,-13
Cc1cccc(NC(=O)c2ccc(COc3ccccc3)o2)n1,22,-17,16,i,0,0,3,-13
COc1ccc(-c2c(-c3ccc(OCC(=O)NN)cc3O)n[nH]c2C)cc1,7,-4,12,i,-6,8,5,.
Cn1c(N2CCOCC2)c(C#N)c2ccccc21,-2,6,0,i,10,2,-4,-14
Cc1ccccc1NC(=O)CCN1CCN(CCO)CC1,-12,15,7,i,-4,-5,2,-4
O=C(CSCc1cccc(Cl)c1)OCc1nc2ccsc2c(=O)[nH]1,1,-22,.,i,.,2,1,-20
CC(C)n1c(=O)[nH]c(=O)n1C(C)C,.,4,.,.,.,-2,3,-10
Nc1nc(CSC(=S)N2CCOCC2)nc(Nc2ccccc2)n1,-5,-14,-4,i,-6,-6,-8,-18
Cc1ccc(F)cc1NC(=O)COC(=O)C1CCN(c2ccc(C(F)(F)F)cn2)CC1,-1,.,.,.,.,1,2,-3
COc1ccc(NC(=O)C2Cc3ccccc3CN2C(=O)c2ccco2)cc1 (centres undefined),-26,-18,-6,i,17,-1,0,-5
COc1ccc(C2=NN(S(C)(=O)=O)C(c3ccc4nccnc4c3)C2)cc1 (centres undefined),-12,-23,4,i,2,1,1,.
O=C(c1cccc(-c2cccc3nccn23)c1)N1CCOCC1,.,8,.,.,.,2,5,-23
CCc1ccccc1NC(=O)CSc1nc2ccccc2n1CC(=O)N1CCCC1,5,.,1,i,1,3,3,-13
CC(=O)N/C(=C/c1ccccc1)C(=O)NC(Cc1ccccc1)C(=O)O (centres undefined),4,.,-4,i,1,0,4,-7
CCOc1ccc(NC(=O)CCCN2C(=O)C(c3ccccc3)Oc3cccnc32)cc1 (centres undefined),-1,12,.,i,.,1,2,-14
CC1Cc2ccccc2N1C(=O)C1CCCN(S(=O)(=O)c2cccc3nsnc23)C1 (centres undefined),-11,.,7,i,-1,1,-10,9
COc1ccc(CNC(=O)N2CCN(S(=O)(=O)c3ccc(C)cc3C)CC2)cc1,-13,-3,2,i,-6,6,-2,14
CC1CCC2(CC1)NC(=S)N(C(C)(C)C)N2 (centres undefined),-8,-8,5,i,2,-1,0,-22
Cc1cccn2cc(-c3ccc(Cl)cc3)nc12,-3,-67,-12,.,2,-4,-6,.
CC(=O)c1c(C)n(-c2ccc(C)cc2C)c2ccc(O)cc12,-16,41,0,i,6,-7,-8,-9

# Single values from above.
# Reading of `Nc1nc(CSC(=S)N2CCOCC2)nc(Nc2ccccc2)n1` under Env fusion inh: -14
# Reading of `Cc1ccc(F)cc1NC(=O)COC(=O)C1CCN(c2ccc(C(F)(F)F)cn2)CC1` under UUG fidelity: -3
# Reading of `Cc1ccccc1NC(=O)CCN1CCN(CCO)CC1` under eIF4H FP inh: -4

# Part of the list above in order of molar mass, smallest number first.
SMILES,CSC inhib,Env fusion inh,PABP FP inh,Rce1 inhib,eIF4H FP inh,MT1-MMP act inh,MT1-MMP act inh RFP,UUG fidelity
CCCS(=O)(=O)c1snnc1C,-5,.,1,.,0,7,3,10
Cn1cc(C(=O)Nc2cccc(F)c2)cn1,-1,.,8,i,8,7,7,-25
Cn1c(N/N=C/c2cc3ccccc3nc2Cl)nc2ccccc21,28,i,-10,i,-7,-24,-1,.

# More records.
SMILES,CSC inhib,Env fusion inh,PABP FP inh,Rce1 inhib,eIF4H FP inh,MT1-MMP act inh,MT1-MMP act inh RFP,UUG fidelity
O=C1OC[C@@H]2CCCN2C(=O)[C@@H](CC(=O)N(CCO)Cc2ccccc2)C/C=C\C[C@H]1Cc1ccc(F)cc1,-19,3,.,.,.,-1,-2,-15
O=C(Nc1cccc(C(F)(F)F)c1)Nc1ccc(N2CCCC2)c(S(=O)(=O)Nc2ccccc2Cl)c1,78*,?,8,i,-15,-36,-38,.
Cc1ccc(CSCCC(=O)NCCC2=CCCCC2)cc1,1,9,4,i,1,2,4,.
CC(C)CC(NC=C1C(=O)OC(C)(C)OC1=O)C(=O)O (centres undefined),-13,-9,.,i,.,2,4,-15
COc1ccc(S(=O)(=O)NCCC(=O)NCc2ccc(F)cc2)cc1,.,4,-4,i,-2,-1,-1,-8

# 3 records picked at random from the list so far:
SMILES,CSC inhib,Env fusion inh,PABP FP inh,Rce1 inhib,eIF4H FP inh,MT1-MMP act inh,MT1-MMP act inh RFP,UUG fidelity
COc1ccc(-c2c(-c3ccc(OCC(=O)NN)cc3O)n[nH]c2C)cc1,7,-4,12,i,-6,8,5,.
O=C(c1cccc(-c2cccc3nccn23)c1)N1CCOCC1,.,8,.,.,.,2,5,-23
CCOc1ccc(NC(=O)CCCN2C(=O)C(c3ccccc3)Oc3cccnc32)cc1 (centres undefined),-1,12,.,i,.,1,2,-14
